High-throughput results from PubChem.
MT1-MMP promoter – MT1-MMP gene expression reporter suppression – cell-based, luciferase reporter, luminescence (AID 618) | MT1-MMP promoter luciferase reporter cells, luminescence | calls from a first round at 10 µM; hits with a dose series show EC50 in µM | 0.62% of 87,000 active;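 active = over half of the reporter light lost at 10 µM or EC50 under 50 µM; inactive = the rest and hits that failed the dose series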;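 also: actives suppress MT1-MMP promoter-driven transcription so potencies describe inhibitors; HT1080 fibrosarcoma cells; overnight exposure; toxic or luciferase-blocking compounds were not removed from the actives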
Hsc70 ATP site – small molecules displacing fluorescent ligand from Hsc70 – biochemical, fluorescence polarization, primary screen (AID 568) | Hsc70 fluorescence polarization, probe displacement; higher % means a stronger effect; strong numbers were not always called active | one-dose displacement, % at 20 µM; IC50 in µM for titrated hits | 83,000 tested, under 10 active;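 active = displacement above 50% without optical interference and an IC50 on retest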;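 also: ATPase domain with a fluorescein-tagged ATP probe; 0% = vehicle and 100% = excess ADP; read after one hour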
WNV protease inh – WNV NS2B-NS3 proteinase inhibition; AID 577; 0.18% of 65,000 active; z-score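 (tested at a level between 10 and 100 µM)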; WNV NS2B-NS3 protease, fluorogenic substrate Ex360/Em465; stronger effect = lower value; P06935;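 active = z-score at -3 or under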;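 also: score is relative to mean and spread of the compound wells of a plate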
Target sequence (P06935 1371-1501 limits assumed): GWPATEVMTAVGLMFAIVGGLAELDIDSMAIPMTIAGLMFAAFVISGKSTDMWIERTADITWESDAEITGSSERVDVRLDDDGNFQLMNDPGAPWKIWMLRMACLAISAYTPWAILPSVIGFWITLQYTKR
Target sequence (P06935 1502-1679 limits assumed): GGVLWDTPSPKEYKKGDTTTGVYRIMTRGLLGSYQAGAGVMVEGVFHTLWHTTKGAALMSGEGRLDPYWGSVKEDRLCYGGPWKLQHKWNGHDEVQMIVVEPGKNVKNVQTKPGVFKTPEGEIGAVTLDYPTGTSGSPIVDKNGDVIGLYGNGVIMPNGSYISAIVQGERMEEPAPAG
Active calls of the source: *; i = inactive; . = not tested or not shown.

SMILES | MT1-MMP promoter | Hsc70 ATP site | WNV protease inh
Cc1c(N=Cc2cc3c(cc2Cl)OCO3)c(=O)n(-c2ccccc2)n1C | i | 4.6% | -0.23
O=C(CN1CC(c2ccccc2)CC1=O)OCc1ccccc1F (stereo unspecified) | i | 3.0% | -0.78
CC(Sc1nc2ccccc2[nH]1)C(=O)O (stereo unspecified) | i | 0.3% | .
CCSC1=C(C#N)C(c2ccc3c(c2)OCO3)C2=C(CCCC2=O)N1 (stereo unspecified) | i | 4.4% | .
CCOC(=O)C1CCN(C(=O)CC2C(=O)N(Cc3ccccc3)C(C)c3nc4ccccc4n32)CC1 (stereo unspecified) | i | 1.7% | -0.76
O=C(NCc1ccco1)C(c1ccc(F)cc1)N(CC1CCCO1)C(=O)Cn1nnc2ccccc21 (stereo unspecified) | i | -3.6% | -0.64
CCN(CC)CCN1C(=O)C(=O)/C(=C(/O)c2c(C)[nH]c(C(=O)OC)c2C)C1c1ccc(OC)cc1 (stereo unspecified) | i | -3.9% | -0.27
O=c1c2ccccc2nc(SCc2ccccc2)n1Cc1ccco1 | i | -7.2% | -0.84
COC(=O)[C@H](CCSC)NC(=O)Nc1ccc(C)c(C)c1 | i | -5.6% | 0.82
CC(C)[C@H](NC(=O)[C@@H]1CSCN1C(=O)OC(C)(C)C)C(=O)NCC1CCC(C(=O)O)CC1 (stereo partly specified) | i | -1.7% | 0.45
Nc1cc(N)nc(SCCN2CCCCC2)n1 | i | -2.7% | -0.56
CC(=O)c1cccc(S(=O)(=O)N(CCCO)Cc2cc3ccc(C)cc3[nH]c2=O)c1 | i | -2.2% | 0.46
Cc1cc(NC(=O)COC(=O)COc2cccc3c2OC(C)(C)C3)no1 | i | 3.3% | -2.1
COC(=O)c1ccccc1NC(=O)C12CC3CC(C1)CC(n1cnc(Cl)n1)(C3)C2 | i | 2.1% | .
Cc1ccccc1N(C(=O)Cn1nnc2ccccc21)C(C(=O)NCc1ccco1)c1ccncc1 (stereo unspecified) | i | -6.5% | 1.6
O=C(NCC1CCCO1)c1ccccc1-c1nc(-c2ccc(Cl)cc2)no1 (stereo unspecified) | i | -3.8% | 0.1
O=C(COC(=O)c1ccc(Br)o1)NCc1ccco1 | i | -4.2% | 1.4
O=C(C1CCCN1C(=O)c1cccs1)N1CCN(Cc2ccc3c(c2)OCO3)CC1 (stereo unspecified) | i | 1.0% | 0.2
O=C(O)c1ccccc1SC1CC(=O)N(C2CCCCC2)C1=O (stereo unspecified) | i | 4.2% | 0.66
CC(=O)N1CCc2cc(S(=O)(=O)NC(C(=O)NC3CCCc4ccccc43)C(C)C)ccc21 (stereo unspecified) | i | -1.3% | -1.9
FC(F)C(F)(F)C1=CC(c2cccs2)=NCCN1 | i | 0.8% | 0.18
O=C1CCC(=O)N1c1ccc(CSc2nc3ccccc3[nH]2)cc1 | i | -2.2% | -0.51
CN(C)CCOc1nc(-c2ccccc2)nc2c1oc1ccccc12 | i | 0.5% | -0.68
CN(C)CCCNC(=O)c1ccc(CN(c2ccccc2)S(C)(=O)=O)cc1 | i | 1.4% | -0.54
O=C(Cn1cnc2ccccc21)OCC(=O)N1CCc2ccccc2C1 | i | -3.9% | -0.3

Compound profiles, as listed above. Values in the order: MT1-MMP promoter	Hsc70 ATP site	WNV protease inh
`CN(C)CCOc1nc(-c2ccccc2)nc2c1oc1ccccc12` as listed: i	0.5%	-0.68
`Nc1cc(N)nc(SCCN2CCCCC2)n1` as listed: i	-2.7%	-0.56
`O=C(Cn1cnc2ccccc21)OCC(=O)N1CCc2ccccc2C1` as listed: i	-3.9%	-0.3

(cont.)
SMILES | MT1-MMP promoter | Hsc70 ATP site | WNV protease inh
O=C(CC1CCCCC1)N1CCN(c2ccccn2)CC1 | i | 5.1% | 0.14
O=C(CSc1ccccn1)N1CCN(c2ccccc2)CC1 | i | -1.3% | 0.63
CCOC(=O)c1c(N)sc(C(O)(C(F)(F)F)C(F)(F)F)c1-c1ccc(OC)cc1OC | i | -3.9% | 0.41
c1ccc(-c2nc3nc4ccccc4nc3n2Cc2ccco2)cc1 | i | -3.9% | -1.3
N#Cc1cc2c(nc1SC1CCCCC1O)CCCC2 (stereo unspecified) | i | 0.2% | .
CCN(CC)S(=O)(=O)c1ccc(NC(=O)COC(=O)c2ccc(Br)o2)cc1 | i | 3.8% | 0.01
Cc1cc2oc(=O)cc(C)c2c(=O)o1 | i | -1.8% | 0.55
CC(=O)N1N=C(c2ccncc2)OC12CCCCC2 | i | -0.2% | .
CCOc1ccccc1-c1nnc(SCC(=O)NC2CC3CCC2C3)n1CC (stereo unspecified) | i | -1.7% | -1.8
Cn1c(=O)c2c(ncn2CC(N)=O)n(C)c1=O | i | 5.0% | 1.3
Cc1cccc(CCN(Cc2cc3cccc(C)c3[nH]c2=O)C(=O)N2CCOCC2)c1 | i | -2.7% | 2
CC1(C)Cc2c(sc3nn[nH]c(=O)c23)CO1 | i | -4.2% | -1.4
CCS(=O)(=O)n1nc(-c2ccccc2)nc1SCc1ccccc1 | i | -0.6% | -1.7
O=C(c1ccco1)N1CCN(c2ncnc3c2[nH]c2ccc(Br)cc23)CC1 | i | 102% | -0.62
COc1ccc(C(CNC(=O)Cn2[nH]c(=O)c3ccccc3c2=O)N2CCCC2)cc1 (stereo unspecified) | i | 4.4% | -0.81
Cc1cc2cc(NC(=O)c3ccco3)ccc2[nH]1 | i | 1.8% | .
Cn1nnc(NC(=O)c2ccccc2F)n1 | i | -5.5% | -0.55
CCOC(=O)CSc1nnc(-c2ccccc2NC(=O)c2ccccc2)o1 | i | -8.2% | -1.1
O=C(Nc1ccc(Br)c2cccnc12)c1ccc(Cn2cc(Cl)cn2)o1 | i | -7.6% | -0.3
O=C(COc1c(F)c(F)c(C(F)(F)F)c(F)c1F)Nc1ccc(N2CCOCC2)c(Cl)c1 | i | -4.3% | 0.8
O=C(CSc1nnc(C2CC2)n1Cc1ccccc1)c1cc2ccccc2o1 | i | -7.6% | -1.3
COc1ccccc1C(=O)NCCC(=O)N1CC(=O)Nc2ccccc21 | i | 5.8% | 1.6
CCOC(=O)/C(=C\c1ccccc1)C(=O)c1cc(C(C)=O)c(Nc2ccccc2)s1 | 14µM* | -7.9% | .
CCCC(=O)CN1C(=O)C2(OCCO2)c2ccccc21 | i | -2.2% | -1.1
CC(C)(C)c1ccc(S(=O)(=O)N2CCCC2C(=O)NC2=NCCS2)cc1 (stereo unspecified) | i | 4.3% | -0.21

Of the compounds above, 2 contain two or more sulfur atoms:
SMILES | MT1-MMP promoter | Hsc70 ATP site | WNV protease inh
CCS(=O)(=O)n1nc(-c2ccccc2)nc1SCc1ccccc1 | i | -0.6% | -1.7
CC(C)(C)c1ccc(S(=O)(=O)N2CCCC2C(=O)NC2=NCCS2)cc1 (stereo unspecified) | i | 4.3% | -0.21

Additional structures follow.
SMILES | MT1-MMP promoter | Hsc70 ATP site | WNV protease inh
CCN(CC)S(=O)(=O)c1ccc(Cc2ncc(C(F)(F)F)cc2Cl)s1 | i | -0.6% | .
CCc1nccn1S(=O)(=O)c1cc(C)c(OC)cc1C | i | 4.4% | .
Cc1ccc(-n2c(C)nn(-c3ncc(C(F)(F)F)cc3Cl)c2=O)cc1 | i | 1.5% | .
Cc1ccc2cc3cc(C(=O)N4CCCCCC4)oc3nc2c1 | i | -1.6% | -1.1
CC(=O)c1c(N=CN(C)C)nc(C)nc1-c1ccccc1 | i | -1.8% | -0.21
Cc1sc2nc3n(c(=O)c2c1C)NC(=O)CC3 | i | -4.9% | 0.42
Cc1nc2cc(NC(=O)N3CCCCC3)ccc2n1C | i | 2.4% | .
Nc1nc2n(n1)C(c1ccc(F)cc1)CC(c1ccc(F)cc1)N2 (stereo unspecified) | i | -6.6% | 0.65
Cc1cc(C)c(NC(=O)NC(=O)c2ccc(F)cc2)c(C)n1 | i | -2.0% | -0.79
O=C(O)CCCNc1cc(N2CCC3(CC2)OCCO3)c2noc3c2c1C(=O)c1ccccc1-3 | i | -41% | -1.2
O=C(Oc1ccccc1N1C(=O)CCC1=O)c1ccco1 | i | -3.3% | 0.04
Cc1ccc(C)c(N2CCN(C(=O)c3cc(S(=O)(=O)N4CCOCC4)ccc3F)CC2)c1 | i | 3.0% | 0.31
C/C(=N\O)C(=O)C(CN1CCCCC1)CN1CCCCC1 | i | -1.9% | 0.47
Cc1ccc(-c2nnn(CC(=O)N3CCCCC3)n2)c(-n2cnnn2)c1 | i | 2.0% | -0.05
COc1ccc(-n2nc(C(=O)Nc3ccc4c(c3)OCO4)c3ccccc3c2=O)c(OC)c1 | i | 0.1% | 0.1
O=C(c1cnn2cccnc12)N1CCN(Cc2ccc3c(c2)OCO3)CC1 | i | 4.7% | -1.5
Cc1noc(C)c1COC(=O)c1cc(F)c(F)cc1Cl | i | -3.7% | 0.12
CC(=O)Nc1nc(-c2ccccc2)nc(-c2ccccc2OC(C)=O)n1 | i | -2.1% | -0.39
CN(C)c1ccc(C2N(c3ccc(F)cc3)C(=O)C3CCCN32)cc1 (stereo unspecified) | i | -4.8% | -0.97
COC(=O)c1[nH]c2ccccc2c1NC(=O)CNC1CCCCC1 | i | 3.2% | 0.17
COC(=O)/C=C1\C(=O)N(c2nc3ccccc3s2)C(=S)N1c1ccc(F)cc1 | i | -17% | .
Cc1cc(C)nc(SCc2nnc(SCC(=O)Nc3nccs3)n2C)n1 | i | -1.5% | .
Cc1cc(C)n(-c2cccc(Cl)c2)c(=O)c1C#N | i | -6.1% | 1.2
Cc1ccc2cc(C(c3nnnn3C(C)(C)C)N3CCCCCC3)c(=O)[nH]c2c1 (stereo unspecified) | i | -2.5% | -0.39
CC(C)OCCCNC(=O)CCc1nc(-c2ccccc2)no1 | i | 1.2% | -0.13

Results in Hsc70 ATP site and MT1-MMP promoter (two entries from above):
| mol | Hsc70 ATP site | MT1-MMP promoter |
| --- | --- | --- |
| O=C(Oc1ccccc1N1C(=O)CCC1=O)c1ccco1 | -3.3% | i |
| Cc1ccc2cc3cc(C(=O)N4CCCCCC4)oc3nc2c1 | -1.6% | i |

Next part
SMILES | MT1-MMP promoter | Hsc70 ATP site | WNV protease inh
C=CCN1C(=O)C2C(C(=O)NC3CCCCC3)C3C=CC2(O3)C1C(=O)NC1CCCC1 (stereo unspecified) | i | 8.3% | 0.42
O=S(=O)(CCSc1nc2ccccc2s1)c1nc2ccccc2s1 | i | 4.1% | .
COc1ccc(OC)c2c(N)c(C#N)c(C(F)(F)C(F)(F)F)nc12 | i | -3.2% | -0.53
CCC(=O)Oc1oc(-c2ccccc2)nc1C=Nc1ccccc1OC | i | -1.3% | 0.46
CCC(=O)N1CCN=C1SCc1ccccc1Cl | i | -1.0% | -0.34
c1ccc(OCCn2cnc3ccccc32)cc1 | i | 0.9% | 0.57
COc1cccc(C2C(C(=O)c3cccs3)=C(O)C(=O)N2CCN(C)C)c1OC (stereo unspecified) | i | 5.9% | -0.57
Nc1nnc(COc2ccc(Br)cc2Br)s1 | i | 3.7% | -1.3
COc1ccc(C2=NOC(C(=O)Nc3ccc(C(C)=O)cc3)C2)cc1OC (stereo unspecified) | i | -8.0% | 1.8
Fc1ccc(CN2CCSCC2)cc1Br | i | -4.3% | -0.01
Cc1ccc(C2C(C(=O)O)c3ccccc3C(=O)N2C)o1 (stereo unspecified) | i | 0.5% | .
COC(=O)c1ccc(NC(=O)CCN2CCN(Cc3ccccc3)CC2)cc1 | i | 4.6% | .
Cc1nc(CNS(=O)(=O)c2ccc3c(c2)CCCC3)cs1 | i | 5.0% | -0.77
c1ccc(-c2noc(-c3cccnc3)n2)nc1 | i | 1.5% | -0.95
COC(=O)c1ccc(C(=O)Nc2ccc3nc(-c4cccnc4)[nH]c3c2)cc1 | i | 0.5% | .
COCCN(C(=O)C(C)C)c1nnc(-c2ccc(C)cc2)s1 | i | -4.0% | .
O=S(=O)(c1cccs1)n1nnc2ccccc21 | i | -4.6% | -0.97
CC(C)(C)OC(=O)N1CCC[C@H]1C(=O)NCC1CCC(C(=O)O)CC1 (stereo partly specified) | i | -2.2% | -0.27
COc1ccc(CNC(=O)C2CC=CCC2C(=O)O)cc1OC (stereo unspecified) | i | 5.0% | 0.56
Cc1ccc(-c2csc(C(C#N)=C3CCCC3)n2)cc1 | i | 1.8% | .
c1ccc(-c2csc3ncn4cnnc4c23)cc1 | i | -1.2% | 0.51
CCOC(=O)N1CCC(NC(=O)c2cccnc2SC)CC1 | i | -1.5% | -0.81
COc1ccc(COC(=O)NNC(=O)c2ccccc2Cl)cc1 | i | 1.7% | .
CCOC(=O)CNC(=O)CSc1nnnn1-c1cc(C)ccc1C | i | -0.1% | 0.15
COC(=O)c1cc(Oc2ccc(C(=O)OC)cc2N)cc(C(=O)OC)c1 | i | -2.5% | 0.07
CCCCNc1cc(NC(C)=O)cc2cc(OC)c(OC)cc12 | i | -3.7% | -0.86
COc1cccc(-n2nnnc2SCC(=O)NCc2ccco2)c1 | i | -1.6% | -0.22
COc1cccc(N2C(=O)C3CCCN3C2c2ccc(F)cc2)c1 (stereo unspecified) | i | -3.2% | 0.73

A run of entries taken from the entries so far, as a working copy:
SMILES | MT1-MMP promoter | Hsc70 ATP site | WNV protease inh
COc1ccc(COC(=O)NNC(=O)c2ccccc2Cl)cc1 | i | 1.7% | .
CCOC(=O)CNC(=O)CSc1nnnn1-c1cc(C)ccc1C | i | -0.1% | 0.15
COC(=O)c1cc(Oc2ccc(C(=O)OC)cc2N)cc(C(=O)OC)c1 | i | -2.5% | 0.07

Not all compounds are listed; the hit share may differ from the screen's.
